Screens as filed in PubChem.
Six1-Eya2 inh – qHTS Assay for Inhibitors of the Six1/Eya2 Interaction; Homeobox protein SIX1 (Homo sapiens) + Protein phosphatase EYA2 (Homo sapiens), …; AlphaScreen GST-Six1/His-Eya2 binding, biochemical; active compounds read low; control for the full effect not named in the record; activity change, % (concentration not given with the values); actives 0.56% (n = 360,000); AID 651725, 2012; in the data active = activity change below about -65%; inconclusive = about -30% to -65%; inactive = above about -30%; also: % is scaled to controls: 0 for no effect and ±100 for the full control effect
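Compounds are tested against tagged Six1 and Eya2 proteins bridged by glutathione donor and nickel acceptor beads; after a one-hour incubation at 37 °C without light, AlphaScreen emission is recorded.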
D2 PAM – Beta-Arrestin HTS for Positive Allosteric Modulators of the Human D2 Dopamine Receptor: Potentiators | D(2) dopamine receptor (Homo sapiens), P14416 | DiscoveRx D2 beta-arrestin cells, luminescence, 90 min; 100% = 57 uM dopamine signal | potentiation, % (test concentration not listed) | actives 0.23% (n = 360,000) | AID 624464, 2012; active = potentiation of 50% or more; inconclusive = 30% to 50%; inactive = 30% or less;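 also: compound concentration not given in the record; tested on top of an EC20 dose of dopamine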
Target sequence (P14416 whole entry, looked up): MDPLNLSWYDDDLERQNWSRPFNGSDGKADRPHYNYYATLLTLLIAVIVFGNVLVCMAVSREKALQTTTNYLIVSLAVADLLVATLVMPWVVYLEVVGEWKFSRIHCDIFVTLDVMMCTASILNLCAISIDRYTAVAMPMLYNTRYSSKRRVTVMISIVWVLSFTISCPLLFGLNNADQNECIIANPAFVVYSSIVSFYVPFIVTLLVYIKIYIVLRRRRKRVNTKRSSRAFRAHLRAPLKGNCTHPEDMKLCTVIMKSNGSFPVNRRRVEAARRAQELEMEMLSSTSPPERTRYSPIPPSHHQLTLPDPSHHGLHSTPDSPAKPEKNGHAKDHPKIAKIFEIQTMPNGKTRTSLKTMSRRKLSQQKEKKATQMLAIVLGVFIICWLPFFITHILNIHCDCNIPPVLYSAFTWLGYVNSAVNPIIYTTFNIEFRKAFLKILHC
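D2 cells co-treated with compound plus 50 nM dopamine (EC20) for 90 min at 37 deg C to detect potentiation. Beta-arrestin recruitment was read as enzyme-fragment luminescence after 1 h at ambient temperature. Full response was set by 57 uM dopamine.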
TRPML1 agonist – qHTS for Agonists of the Human Mucolipin Transient Receptor Potential 1 (TRPML1); actives 0.12% (n = 410,000); activation, % (concentration not given with the values); TRPML1-expressing cells, Ca2+ dye fluorescence, FDSS; host cell line not named in the record; reference of the full effect not given here; Mucolipin-1 (Homo sapiens), Q9GZU1; in the data active = activation above about 50%; inconclusive = about 30% to 50%; inactive = below about 30%; also: 0% is about no effect; the text of the record puts the active cut at 80%
Target sequence (Q9GZU1 whole entry, looked up): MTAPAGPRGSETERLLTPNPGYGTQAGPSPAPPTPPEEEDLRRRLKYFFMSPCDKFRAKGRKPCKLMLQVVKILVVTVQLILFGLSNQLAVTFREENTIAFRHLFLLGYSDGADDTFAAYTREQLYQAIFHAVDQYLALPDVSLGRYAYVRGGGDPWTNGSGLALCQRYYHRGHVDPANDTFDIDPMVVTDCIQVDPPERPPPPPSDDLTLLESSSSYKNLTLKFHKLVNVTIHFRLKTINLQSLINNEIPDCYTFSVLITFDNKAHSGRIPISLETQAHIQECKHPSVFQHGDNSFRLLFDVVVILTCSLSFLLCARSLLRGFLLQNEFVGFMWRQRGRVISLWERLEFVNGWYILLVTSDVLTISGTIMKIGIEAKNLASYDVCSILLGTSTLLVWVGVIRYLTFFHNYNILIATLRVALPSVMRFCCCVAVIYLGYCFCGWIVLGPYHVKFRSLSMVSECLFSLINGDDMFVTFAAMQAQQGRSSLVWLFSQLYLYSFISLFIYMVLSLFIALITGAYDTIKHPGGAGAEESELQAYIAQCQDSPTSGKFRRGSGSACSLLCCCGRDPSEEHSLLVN
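In this qHTS format, compounds were pin-transferred onto Ca8-dye-loaded TRPML1-DL cells induced with Tet overnight, and intracellular Ca2+ fluorescence was recorded kinetically for 110 s after a 10 s baseline. A subsequent 4uM final 54-4 (EC80) addition followed by a second 110 s read served as the antagonist phase.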
TRPML1 blocker – qHTS for Inhibitors of the Human Mucolipin Transient Receptor Potential 1 (TRPML1) | Mucolipin-1 (Homo sapiens), Q9GZU1 | TRPML1-inducible cells, Ca2+ dye fluorescence, FDSS; active compounds read low; inhibition of EC80 agonist-evoked calcium signal | activity change, negative = inhibition, % (no concentration beside the values) | actives 0.02% (n = 390,000) | AID 624415, 2012; in the data active means activity change below about -50%; inconclusive means about -30% to -50%; inactive means above about -30%;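 also: stimulus is agonist 54-4 at its EC80 concentration; % is scaled to controls: 0 for no effect and ±100 for the full control effect; compound concentration not given in the record; the text of the record puts the active cut at -80%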
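Calcium fluorescence in TRPML1-DL cells induced overnight with Tet: a 110 s read after compound pin addition, then a 110 s antagonist read after challenge with 54-4 at 4 uM final (EC80).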
TRPV1 PAM – HTS Assay for Compounds that Act as Potentiators of the Vanilloid Receptor 1; Transient receptor potential cation channel subfamily V member 1 (Homo sapiens), Q8NER1; TRPV1-expressing cells, Fluo-8 calcium influx, capsaicin EC20 potentiation; host cell line not named in the record; control for the full effect not named in the record; potentiation, % at 8.33 µM; actives 0.02% (n = 320,000); AID 540277, 2011; active means potentiation above 80%; inconclusive means 30% to 80%; inactive means below 30%; also: 0% is about no effect
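Cells expressing TRPV1 were dye-loaded with Fluo-8 and read kinetically: 10 s baseline, 3 min after compound (agonist portion), then 2 min after EC20 capsaicin (allosteric enhancer portion). Calcium-bound dye fluorescence at 480/520 nm.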
CtBP-E1A blk – qHTS Assay for Inhibitors of the CtBP/E1A Interaction. AlphaScreen GST-E1A/His-CtBP binding, 1536-well; active compounds read low; control for the full effect not named in the record. activity change, % (test concentration not listed). actives 0.49% (n = 340,000). AID 651724, 2012; in the data active means activity change below about -65%; inconclusive means about -30% to -65%; inactive means above about -30%; also: % is scaled to controls: 0 for no effect and ±100 for the full control effect
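Homogeneous bead-based format: GST-tagged E1A captured on glutathione donor beads, His-tagged CtBP on nickel acceptor beads; compounds precede bead addition by 2 h at 37 °C.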
The depositor's hits bear a star; ? = inconclusive; . = not tested or not shown; & = joins results of further samples.

SMILES	Six1-Eya2 inh	D2 PAM	TRPML1 agonist	TRPML1 blocker	TRPV1 PAM	CtBP-E1A blk
O=C(NCCCNC(=O)c1cnccn1)c1ccc(Br)cc1	-8	-7	1.1	3	5	-9
CC(C(=O)OCC(=O)c1cccc([N+](=O)[O-])c1)N1C(=O)C2C3C=CC(C3)C2C1=O (stereo not drawn)	2	-20	-0.5	-5	3	9
COc1ccc(N(CC(=O)Nc2nccs2)S(=O)(=O)c2c(C)[nH]c(=O)[nH]c2=O)cc1	-5	-7	0.9	19	6	.
C=CCN1C(=O)C2(OCCCO2)c2cc(C)ccc21	-4	0	0.4	30	13	1
COc1cc(CNC2CCCCCCC2)cc(Br)c1OCC#N	7	-34	0.9	34	-6	0
COc1ccc(-n2c(Cn3c(=O)sc4ccccc43)nnc2SCC(=O)N2CCCC2)cc1	16	-3	0.4	1	2	22
CCOCC(=O)Nc1nnc(COc2ccc(Cl)cc2)s1	4	5	0.9	-13	10	-2
O=C(NCc1ccccc1Cl)C1CCCN(S(=O)(=O)c2cnc[nH]2)C1 (stereo not drawn)	-3	-9	-0.5	1	-9	3
COc1ccccc1OCc1cc(C(=O)N2CC3C[C@@H]4CC2C[C@H](C3)C4)no1	2	-7	-1.0	-10	-6	3
COc1ccc(CN=Cc2c(O)[nH]c3ccccc23)cc1	-6	-7	-0.7	14	2	-30
O=S(=O)(c1cccs1)N1CCN(c2ccccc2Cl)CC1	7	-1	0.6	?	.	0
O=c1sc2ccccc2c(N2CCCC2)c1[N+](=O)[O-]	-4	-9	0.1	-10	7	-4
Cc1cc(NC(=O)CSc2nc(Cc3ccccc3)c(C)[nH]2)no1	3	-4	1.6	-10	-3	5
CCCn1ncc(OC)c(Cl)c1=O	4	-1	1.0	8	1	6
Cc1noc(C)c1COC(=O)c1ccc2ccccc2n1	-1	-19	0.4	-6	-3	7
O=C(NCC1CCCO1)C(=O)NCC(c1ccco1)N1CCN(c2ccc(F)cc2)CC1 (stereo not drawn)	5	-12	0.0	-9	2	-2
COc1ccc(-c2nc(C#N)c(NCCc3ccccc3)o2)cc1	-11	-20	1.1	48	-18	8
CC(=O)Nc1ccc(S(=O)(=O)N2CCNC(=O)CC2)cc1	0	-3	0.2	4	-21	2
Cc1ccc(C(=O)NNC(=O)C2CSC3(C)CCC(=O)N23)cc1 (stereo not drawn)	5	-1	0.4	-13	9	3
Cc1ccc(S(=O)(=O)CC(=O)Nc2nccs2)cc1	-1	-1	-0.5	7	-16	-4
CCC(C)(C(=O)Nc1ccccc1C)N(C(=O)CNC(C)=O)c1ccc(C)cc1 (stereo not drawn)	-1	1	0.0	40	-5	-13
CCCn1c(SCC(=O)N2CCCc3ccccc32)nnc1-c1ccco1	22	-32	1.0	19	-4	0
Cc1cccc(NC(=O)C(C)N2C(=O)c3ccccc3S2(=O)=O)n1 (stereo not drawn)	8	-3	-0.1	5	-15	2
O=C(NCc1cccnc1)C(=O)NCC1OCCN1S(=O)(=O)c1ccccc1 (stereo not drawn)	-1	-5	0.0	-15	21	1
COc1ccc(NC(=O)/C(C#N)=C/c2ccc(Sc3nncn3C)c([N+](=O)[O-])c2)cc1	-1	-5	0.1	2	-2	-16

Full records, looked up by structure. Values in the order: Six1-Eya2 inh	D2 PAM	TRPML1 agonist	TRPML1 blocker	TRPV1 PAM	CtBP-E1A blk
CCCn1c(SCC(=O)N2CCCc3ccccc32)nnc1-c1ccco1 across the screens: 22	-32	1.0	19	-4	0
Cc1ccc(S(=O)(=O)CC(=O)Nc2nccs2)cc1 across the screens: -1	-1	-0.5	7	-16	-4
Cc1ccc(C(=O)NNC(=O)C2CSC3(C)CCC(=O)N23)cc1 (stereo not drawn) across the screens: 5	-1	0.4	-13	9	3
Cc1noc(C)c1COC(=O)c1ccc2ccccc2n1 across the screens: -1	-19	0.4	-6	-3	7
CCCn1ncc(OC)c(Cl)c1=O across the screens: 4	-1	1.0	8	1	6

Three records drawn at random from the list so far, as already listed:
SMILES	Six1-Eya2 inh	D2 PAM	TRPML1 agonist	TRPML1 blocker	TRPV1 PAM	CtBP-E1A blk
O=C(NCc1ccccc1Cl)C1CCCN(S(=O)(=O)c2cnc[nH]2)C1 (stereo not drawn)	-3	-9	-0.5	1	-9	3
Cc1noc(C)c1COC(=O)c1ccc2ccccc2n1	-1	-19	0.4	-6	-3	7
Cc1cc(NC(=O)CSc2nc(Cc3ccccc3)c(C)[nH]2)no1	3	-4	1.6	-10	-3	5

(more compounds)
SMILES	Six1-Eya2 inh	D2 PAM	TRPML1 agonist	TRPML1 blocker	TRPV1 PAM	CtBP-E1A blk
NC(=O)COC(=O)c1oc2ccccc2c1CSc1ccc(Cl)cc1	4	-2	2.0	24	-12	.
COc1ccccc1NC1=C(Cl)C(=O)N(c2ccccc2)C1=O	-19	3	2.2	44	7	0
O=C(CCC(=O)NNC(=O)c1ccc(Cl)cc1Cl)NCc1ccccc1	-4	-12	0.5	-15	-3	.
CCN(CC(=O)Nc1c(F)cccc1F)C(=O)/C=C/c1ccc(C)o1	-8	-69	0.5	16	-7	0
CCOC(=O)N1CCN(C(c2ccc(F)cc2)c2sc3nc(C)nn3c2O)CC1 (stereo not drawn)	2	2	0.1	-9	4	-4
Cc1cccc(/C=N/Nc2cc(N3CCOCC3)nc(N3CCOCC3)n2)c1	9	-18	0.2	6	-14	1
COc1ccc(CNC(=O)C(=O)NCc2ccncc2)cc1	-1	-21	-0.5	-4	-1	0
O=C(Nc1cc(S(=O)(=O)N2CCOCC2)ccc1N1CCCC1)c1ccc(F)cc1	-4	-11	-0.6	-12	-13	11
COC(=O)COc1cc2ccccc2cc1C(=O)Nc1ccccc1	0	-7	1.2	5	-2	.
COc1ccc(C(=O)N(Cc2ccco2)Cc2cccs2)c(O)c1	-2	-15	0.8&1.0	-6&10	-4&3	-8
CCC(C)N(NC(C)=O)c1nc(Cl)nc(NC(C)(C)C)n1 (stereo not drawn)	13	3	-0.6	-3	2	-1
O=C(NCC1CCCO1)C1CCN(C2CCN(C(=O)Cc3ccsc3)CC2)CC1 (stereo not drawn)	1	-1	0.4	21	0	3
O=C(C[n+]1ccc(/C=N/O)cc1)NCc1ccccc1	1	-22	-0.2	2	-14	.
O=C(COC(=O)CCN1C(=O)c2cccc([N+](=O)[O-])c2C1=O)NC1CCS(=O)(=O)C1 (stereo not drawn)	-9	8	0.0	-10	2	6
Cc1c(C(=O)NCc2ccco2)oc2ccc(Br)cc12	-11	-28	3.4	1	0	0
O=C(Cc1ccccc1)NNc1c2ccccc2nc2ccccc12	-12	-5	1.6	-7	7	-2
CN(C)c1ccc(/C=N/NC(=S)NCc2ccco2)cc1	-17	16	0.7	16	4	-12
O=C(CCC1CCCN(Cc2ccc3c(c2)CCO3)C1)NCc1ccc(F)c(F)c1 (stereo not drawn)	1	-21	0.9	9	10	.
COC(=O)COc1cccc2c(=O)n(CC(=O)NCCc3ccc(OC)c(OC)c3)ccc12	-2	0	-0.7	0	4	-8
Cc1ccc(SCC(=O)N2CCOCC2)cc1	-2	-3	0.9	4	-19	7
COc1ccc(C(=O)N(CN2CCCC2=O)c2ccccc2OC)cc1OC	3	-2	0.0	7	-6	2
CCCN(CCC)CCCNC(=O)CNC(=O)c1nn(-c2ccc(OC)cc2)c(=O)c2ccccc12	-4	-3	-0.1	-1	12	-16
O=C(NC1(C(F)(F)F)N=C2SCCN2C1=O)c1cccnc1 (stereo not drawn)	0	14	-0.4	-4	-2	2
Cc1cc(C)c(NC(=O)CS(=O)CC(=O)Nc2ccc(N3CCOCC3)cc2)c(C)c1 (stereo not drawn)	1	-3	0.3	18	-4	4
Cc1ccnc(NC(=O)/C=C/c2cccs2)c1	2	-9	-0.8	7	-26	0
Next part:
SMILES	Six1-Eya2 inh	D2 PAM	TRPML1 agonist	TRPML1 blocker	TRPV1 PAM	CtBP-E1A blk
COc1ccc2[nH]c(C(=O)Nc3ncc(C)cc3Br)cc2c1	-9	-1	1.7	-8	.	-14
COc1cccc(CN2CC(C(=O)N(C)CCCC3CCCC3)CCC2=O)c1 (stereo not drawn)	3	-13	-1.0	-1	-5	-1
COc1cc(C(=O)OC(C)C(=O)NC2CCCCC2C)c([N+](=O)[O-])cc1OC (stereo not drawn)	9	-10	0.5	5	-7	-20
Cc1ccc(F)c(S(=O)(=O)NC(=O)C2(C)CCN2C(=O)Cc2ccsc2)c1 (stereo not drawn)	5	-5	0.0	.	.	10
CCOc1ccccc1C(=O)N1CCN(C(c2ccccc2)c2ccccc2)CC1	8	-2	0.7	-5	-1	10
COc1ccccc1NC(=O)C1=C(C)Nc2nc(-c3cccnc3)nn2C1c1ccccn1 (stereo not drawn)	16	-3	0.5	1	.	5
CC1CCC2(CC1)NC(=O)N(NC(=O)CCl)C2=O (stereo not drawn)	4	-6	-0.9	20	-2	10
COc1ccc(C(=O)NC(C)Cc2c[nH]c3ccccc23)cc1 (stereo not drawn)	-5	-6	-0.6	-16	.	16
N#Cc1c(/N=C/c2ccc(Br)s2)sc2c1CCC2	-7	2	0.2	-9	-3	-6
O=C(NCc1ccoc1)c1ccc(NC(=O)c2ccccc2Cl)cc1	4	-1	-0.3	31	-4	-8
CCC(C)NC(=O)CSc1nc(-c2cccs2)cc(C(F)(F)F)n1 (stereo not drawn)	0	-13	1.4	-12	-2	10
CC1=C(C(=O)OCC2CCCCC2)C(c2ccc(O)cc2)NC(=O)N1 (stereo not drawn)	-10	1	-0.5	3	-3	4
CC1CCCCN1C(=O)c1ccc(CS(=O)(=O)Cc2ccccc2)cc1 (stereo not drawn)	-1	12	0.2	10	3	5
C[C@@H]1CN([C@H](C)CO)C(=O)c2cc(NC(=O)Nc3ccc(F)cc3)ccc2O[C@H]1CN(C)C(=O)Nc1ccc(C(F)(F)F)cc1	-3	.	-0.3	-6	.	-1
CN(C)CCCNC(=O)/C(=C\C=C\c1ccccc1)NC(=O)c1ccc([N+](=O)[O-])cc1	45	-7	-0.7	-9	2	-14
CN(C)c1ccc(C(=O)OCC(=O)NCCC2=CCCCC2)cc1	-3	4	0.9	19	4	-2
COC(=O)c1ccc2nc(-c3ccc(OC)c(OC)c3)c(Cc3cccc(F)c3)n2c1	9	.	-0.8	.	.	2
CCn1c(=N)n(CC(=O)OC)c2ccccc21	-3	-15	0.2	-5	-20	2
Cc1ccc(/C=N/NC(=O)CSc2nc3ccccc3n2Cc2ccccc2)o1	-13	1	2.3	14	14	-13
Cc1cccc(NC(=O)COC(=O)c2ccccc2-c2nc3ccccc3s2)c1C	4	6	2.4	10	-5	-4
COc1ccc2c(c1)CCc1c(C(=O)NCc3ccco3)noc1-2	-1	-5	1.5	6	3	6
COc1ccc2nc(C)cc(SCC(=O)OC(C)C)c2c1	-12	-4	5.2	14	-12	-7
